Bioassay records: PubChem BioAssay, several laboratories
Ecoli growth: blocks Escherichia coli growth. hit rate 0.21% among 330,000. OD600, 23 h; stronger effect = lower value. OD600 absorbance (test concentration not listed). AID 1053175;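 active means OD600 absorbance below the run mean of sample wells minus 3.6 SD, in any replicate, cut at about 0.56 in these data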;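 further: stock transfer was 300 nL into about 60 µL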
Beta2AR agonist: activates human beta-2 adrenergic receptor causing internalization; P07550; Am2.2-beta2AR cells, FAP receptor internalization, flow cytometry; reference of the scale not given here; hit rate 0.43% among 340,000; response, % (concentration not given with the values);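 active means response above a set limit, near 3 SD of response in nonfluorescent compounds, cut at about 42% in these data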;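 further: stock transfer was 100 nL into about 11 µL; a reference agonist was the positive control; negative values mostly stem from fluorescent compounds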
Target sequence (P07550 whole entry, looked up): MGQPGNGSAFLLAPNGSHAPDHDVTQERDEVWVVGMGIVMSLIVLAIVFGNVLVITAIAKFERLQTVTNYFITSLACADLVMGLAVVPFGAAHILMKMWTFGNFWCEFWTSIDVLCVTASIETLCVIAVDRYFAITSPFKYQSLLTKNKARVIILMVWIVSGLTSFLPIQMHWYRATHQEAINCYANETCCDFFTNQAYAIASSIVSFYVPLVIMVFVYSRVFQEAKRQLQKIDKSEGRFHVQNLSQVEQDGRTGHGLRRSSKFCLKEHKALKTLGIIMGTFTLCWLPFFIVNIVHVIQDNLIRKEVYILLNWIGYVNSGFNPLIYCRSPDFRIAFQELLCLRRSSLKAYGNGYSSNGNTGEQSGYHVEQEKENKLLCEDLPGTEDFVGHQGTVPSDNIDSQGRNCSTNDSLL
ALR H2O2 inh: human ALR oxidase inhibition via reduced H2O2 | P55789 | purified ALR, DTT oxidation, H2O2 HRP-luminol luminescence | inhibition, % (no concentration beside the values) | hit rate 3.8% among 290,000;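 active means mean and each replicate at 75% or more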;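 further: stock transfer was 7.5 nL into about 7.5 µL; 0% = neutral wells and 100% = wells with inactivated enzyme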
Target sequence (P55789 whole entry, looked up): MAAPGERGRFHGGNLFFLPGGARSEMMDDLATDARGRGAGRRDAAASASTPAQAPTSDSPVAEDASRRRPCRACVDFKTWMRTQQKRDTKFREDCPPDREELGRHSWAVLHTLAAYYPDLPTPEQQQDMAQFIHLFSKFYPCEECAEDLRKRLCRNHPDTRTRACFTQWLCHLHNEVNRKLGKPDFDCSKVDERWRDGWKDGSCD
HNF4A DNA FP: change in binding of human HNF4 alpha to DNA. P41235. HNF4a-FITC DNA binding, fluorescence polarization, 1 h. activity change, % at 10 µM. hit rate 0.3% among 360,000. AID 1224865; in the data active means activity change above about 30%, passing the limit was not always enough;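 further: controls were the assay level and a saturating level of protein; the project sought stronger binding though the title names inhibitors; some compounds called inactive have numbers as strong as hits; positive values seem to mean higher polarization but the record does not say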
UCH37 inh: human UCH37 deubiquitinating enzyme inhibition. Q9Y5K5. purified proteasome/UCH37, Ub-AMC cleavage fluorescence. inhibition, % (test concentration not listed). hit rate 0.33% among 330,000;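 active means mean of two replicates above 20%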;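 further: 0% = compound-free wells with enzyme and 100% = wells lacking proteasome; stock transfer was 100 nL into about 20 µL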
Target sequence (Q9Y5K5 whole entry, looked up): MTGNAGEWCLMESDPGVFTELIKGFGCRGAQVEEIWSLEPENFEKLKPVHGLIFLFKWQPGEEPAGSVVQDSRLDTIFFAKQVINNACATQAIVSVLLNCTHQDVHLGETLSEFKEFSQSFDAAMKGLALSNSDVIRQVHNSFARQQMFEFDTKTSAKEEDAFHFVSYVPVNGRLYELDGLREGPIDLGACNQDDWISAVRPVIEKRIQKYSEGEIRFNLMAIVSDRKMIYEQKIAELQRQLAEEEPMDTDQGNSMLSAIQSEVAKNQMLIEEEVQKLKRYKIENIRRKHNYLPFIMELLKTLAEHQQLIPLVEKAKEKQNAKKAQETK
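Schedule: 30 min plus 25 min, room temperature / Material: human UCH37 within purified proteasomes / Technique: AMC fluorescence intensity at 355/460 nm / Buffer or medium: pH 7.4 Tris-HCl (50 mM) with ovalbumin, ATP-MgCl2, DTT / Controls: wells without proteasome as full block, compound-free enzyme plus substrate as uninhibited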
Ecoli rRNA inh: selective bacterial rRNA inhibition in E. coli; GFP signal change (wild-type ribosome), % (concentration not given with the values); AID 720706; hit rate 1.6% among 350,000; E. coli WT GFP vs humanized-ribosome RFP mutants, fluorescence, 24 h; stronger effect = lower value; DMSO median 0, no signal -100;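 active means significant combined selectivity score with lowered wild-type GFP, culture density cut under 30%, mutant RFP and density less affected; inactive means any of these conditions unmet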; further: one replicate is shown; some compounds called inactive have numbers as strong as hits
FGF22 binding: shifts melting point of recombinant human FGF22; calls only at 9.99 µM; Q9HCT0; hit rate 1.5% among 340,000; recombinant FGF22 thermal shift, SYPRO orange fluorescence; percent of sucrose octasulfate shift, DMSO zero;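 active means melting point raised past a set limit in the mean and every replicate; three in four hits are not shown here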
Ecoli rRNA inh OD600: also measured in Ecoli rRNA inh; calls as there; OD600 change, %; measured here: OD600 growth;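 optical density of the mix in the first replicate; 0 = DMSO median and -100 = no signal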
Ecoli rRNA inh RFP: recorded beside Ecoli rRNA inh, whose call it bears; RFP signal change, %; measured here: RFP humanized mutant strains;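 first replicate; 0 = DMSO median and -100 = no signal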
Numbers without * were called inactive; i = inactive; . = no result given.

nr	SMILES	Ecoli growth	Beta2AR agonist	ALR H2O2 inh	HNF4A DNA FP	UCH37 inh	Ecoli rRNA inh	Ecoli rRNA inh OD600	Ecoli rRNA inh RFP	FGF22 binding
1	COc1ccccc1/C=N/NC(=O)c1ccc(CN2C(=O)c3cccc4cccc2c34)cc1	.	3	-13	2.5	.	-4	6	-0.8	i
2	O=c1ncn(C2CCCCC2)c(=O)[nH]1	0.65	0	.	-1.9	2.6	8	9	-1.2	i
3	NC(=O)C1CCN(c2oc(-c3ccc(F)cc3)nc2S(=O)(=O)c2ccccc2)CC1	0.7	-4	.	1.6	2.4	.	.	.	i
4	O=C(Nc1cc(C(F)(F)F)ccc1Cl)c1cc(C2CC2)on1	0.75	-10	-3	3.3	3.0	.	.	.	.
5	Cc1cccc(NC(=O)NNC(=O)COc2ccc3ccccc3c2)c1	0.74	-4	-4	-5.9	0.2	5	6	0.0	i
6	CC1CCN(C(=O)CSc2nc(N)c(NC(=O)c3ccccc3)c(=O)[nH]2)CC1	0.72	1	-17	3.3	0.1	3	5	-0.1	i
7	Cc1cc(Nc2ccccc2)n(C(=O)c2ccc(N)cc2)n1	0.72	-4	29	-0.8	3.9	.	.	.	.
8	O=C(CSCCO)Nc1cccc(C(F)(F)F)c1	0.67	3	2	-1.3	2.1	.	.	.	.
9	CC1CN(C(=O)c2ccc(CNS(=O)(=O)c3cccc(Cl)c3)cc2)CC(C)O1 (configuration not stated)	0.72	2	.	-2.2	1.5	12	14	2.1	i
10	CCCNC(=O)c1cc(OC)c(OC)cc1[N+](=O)[O-]	0.66	9	-15	-0.1	7.5	19	11	-5.3	i
11	CC(C)(C)c1ccc(OCc2ccc(C(=O)NCc3cccnc3)o2)cc1	0.61	9	-44	2.1	-1.2	-53	-73	-11	.
12	NC(=O)C1CCN(C(=O)c2cc(S(=O)(=O)N3CCN(c4ccccc4)CC3)ccc2Cl)CC1	0.69	-6	.	0.9	2.3	-27	-30	-9.8	i
13	O=C(c1ccccc1)c1ccc(OCC(O)CNCc2ccc(F)cc2)cc1 (configuration not stated)	0.62	15	-2	4.8	6.6	2	-12	10.0	i
14	CC1CCc2c(sc3nc(C4CC4)nc(N4CCN(C(=O)c5ccco5)CC4)c23)C1 (configuration not stated)	0.77	19	-2	-3.1	-0.6	.	.	.	.
15	COc1ccc(NC(=O)C2=CC=CN3CCS(=O)(=O)N=C23)c(OC)c1	0.7	-4	-7	-1.7	2.9	4	12	-3.1	i
16	O=C(c1ccco1)N(Cc1ccc(Cl)cc1)C1CCS(=O)(=O)C1 (configuration not stated)	0.67	0	10	3.9	3.8	2	-7	-2.4	i

Compounds shown so far that have an NH in an aromatic ring, in the order listed:
nr	SMILES	Ecoli growth	Beta2AR agonist	ALR H2O2 inh	HNF4A DNA FP	UCH37 inh	Ecoli rRNA inh	Ecoli rRNA inh OD600	Ecoli rRNA inh RFP	FGF22 binding
2	O=c1ncn(C2CCCCC2)c(=O)[nH]1	0.65	0	.	-1.9	2.6	8	9	-1.2	i
6	CC1CCN(C(=O)CSc2nc(N)c(NC(=O)c3ccccc3)c(=O)[nH]2)CC1	0.72	1	-17	3.3	0.1	3	5	-0.1	i

The list goes on:
nr	SMILES	Ecoli growth	Beta2AR agonist	ALR H2O2 inh	HNF4A DNA FP	UCH37 inh	Ecoli rRNA inh	Ecoli rRNA inh OD600	Ecoli rRNA inh RFP	FGF22 binding
17	CCOc1ccc2oc(C(=O)NNC(=O)c3csc(N4CCOCC4)n3)c(C)c2c1	.	-7	5	1.1	.	-24	-26	-2.7	i
18	COc1cccc(CN(C)CC(O)COC(c2ccccc2)c2ccccc2C)c1 (configuration not stated)	0.64	3	0	0.1	1.3	-14	-47	14	i
19	Cc1nnc(SCC(=O)NC(=O)NC(C)(C)C)n1N	0.71	3	-2	4.8	-0.8	.	.	.	.
20	CCOC(=O)N1CN(C(=O)OCC)CN(C(=O)OCC)C1	0.68	-4	8	-1.2	3.8	25	26	5.6	i
21	CC(C)(C)c1ccc(Cn2nnc3c(=O)[nH]c(C4CCN(C(=O)c5ccco5)CC4)nc32)cc1	0.66	4	.	-1.4	0.8	-2	1	-1.0	i
22	CCOc1ccc(S(=O)(=O)N2CCCC(C(=O)N3CCC(C(N)=O)CC3)C2)cc1Cl (configuration not stated)	0.67	-14	-3	2.0	0.4	-6	-4	0.9	i
23	N#CCC(=O)N1CCCCCC1	0.65	-1	2	-0.9	1.0	7	12	-2.9	i
24	CC1Cc2ccccc2N1C(=O)Cn1cc([N+](=O)[O-])cn1 (configuration not stated)	0.77	1	-7	-0.4	-1.0	.	.	.	.
25	CCC(=O)N1CCN(c2c(Cl)cccc2[N+](=O)[O-])CC1	0.68	-1	.	-1.3	5.8	.	.	.	.
26	COC(=O)c1cc(O)c(OCc2ccccc2)c(O)c1	0.71	16	40	2.5	3.3	.	.	.	.
27	O=C(Oc1ccc(-c2cnc3ccccc3n2)cc1)c1cccc([N+](=O)[O-])c1	0.7	-16	-4	2.8	-0.6	.	.	.	.
28	COc1ccc(CC(=O)Nc2nc(OCCN3CCCC3=O)cnc2-c2cccc(C(F)(F)F)c2)cc1	.	.	.	-3.0	.	-4	-31	0.1	i
29	CC1CCN(S(=O)(=O)c2ccc3c(c2)c(=O)c(C(=O)NCc2ccccc2Cl)cn3C)CC1	0.66	.	-10	.	2.4	.	.	.	.
30	O=C(NCc1ccc2c(c1)OCO2)C1CCCN1C(=O)Nc1cccc(Cl)c1 (configuration not stated)	0.72	-4	-9	0.8	-0.3	.	.	.	.
31	CC(=O)Oc1ccccc1C(=O)Oc1ccccc1C(=O)O	0.64	6	4	-3.0	4.1	.	.	.	i
32	O=C(NS(=O)(=O)Oc1cccc(F)c1)OC[C@@H]1CCCN2CCCCC12 (some centres not stated)	0.68	6	.	-2.6	0.0	-1	11	-3.1	i
33	Cc1nnc2c(Oc3ccccc3)nc3ccccc3n12	0.73	-19	-5	0.9	0.5	.	.	.	.
34	CS(=O)(=O)c1ccc(Cl)c(NC(=O)C2CCN(S(=O)(=O)c3cccs3)CC2)c1	0.69	0	2	0.8	2.2	1	8	-1.0	i
35	O=C(c1cccc(Cl)c1)N1CCN(c2ncnc3c2cnn3-c2ccccc2)CC1	0.72	-4	-24	2.0	-0.7	6	3	4.2	.
36	CC(=O)c1c(NCCc2ccccc2)nc(=S)n(-c2ccccc2)c1C	0.73	25	0	3.4	1.4	-12	-5	-0.4	i
37	COc1cccc(N2CCN(C(=O)c3ccc(CS(=O)c4ccccc4Cl)o3)CC2)c1 (configuration not stated)	.	10	63	2.4	.	-8	-13	0.9	i
38	Cc1c2cn[nH]c(=O)c2c(C)n1Cc1ccc(F)cc1	0.76	7	22	3.7	-2.7	-1	2	-3.0	i
39	COc1ccc(C(C(=O)NC2CCCCC2)N2CCC3(CC2)OCCO3)cc1 (configuration not stated)	0.76	1	6	-0.7	-2.0	.	.	.	.
40	O=C(c1cccc(-c2ccco2)c1)N1CCCC(N2CCN(c3ccc(F)cc3)CC2)C1 (configuration not stated)	0.68	2	5	0.0	0.4	-15	-64	3.7	i
41	Cc1ccc(NC(=O)CSc2nccn2C)cc1F	0.61	12	-5	1.3	0.3	5	12	0.6	i
42	CC1CCCC(NC(=O)CN2C(=O)NC(C)(c3ccccc3)C2=O)C1C (configuration not stated)	0.67	-5	.	3.5	0.3	-4	-6	-1.2	i
43	O=[N+]([O-])/C=C/c1cn(Cc2ccccc2)c2ccccc12	0.72	83*	.	2.3	-4.4	.	.	.	.
44	CCOC(=O)N1CCC(NC(=O)CSCc2nc(-c3cccc(OC)c3)oc2C)CC1	0.74	-3	99*	0.8	0.8	.	.	.	.
45	O=C(CSCc1ccc(Cl)cc1)NCCSCc1ccco1	0.68	-14	32	-2.9	-0.1	-34	-36	19	i
46	CC(=O)c1ccc2ccccc2c1OC(=O)c1ccncc1	.	.	.	-6.1	.	-4	-7	2.5	i
47	Cc1nc2ccccc2c(=O)n1/N=C/c1ccc(C(C)C)cc1	.	14	1	0.9	.	8	11	-3.4	i
48	CC(C)(C)C(=O)N1CCc2cc(-c3csc(N)n3)ccc21	0.73	-10	99*	-0.7	3.0	.	.	.	.
49	C=C(C)COc1ccc2c(CC)cc(=O)oc2c1C	0.72	-8	-3	0.5	-28	.	.	.	.
50	CCOc1ccc(N2C(=O)CNC2=S)cc1	0.68	2	91*	-0.8	1.1	-1	10	4.0	i

11 of these compounds in another layout:
no. | Ecoli growth | Beta2AR agonist | ALR H2O2 inh | HNF4A DNA FP | UCH37 inh | Ecoli rRNA inh | Ecoli rRNA inh OD600 | Ecoli rRNA inh RFP | FGF22 binding | smiles
40 | 0.68 | 2 | 5 | 0.0 | 0.4 | -15 | -64 | 3.7 | i | O=C(c1cccc(-c2ccco2)c1)N1CCCC(N2CCN(c3ccc(F)cc3)CC2)C1 (configuration not stated)
41 | 0.61 | 12 | -5 | 1.3 | 0.3 | 5 | 12 | 0.6 | i | Cc1ccc(NC(=O)CSc2nccn2C)cc1F
42 | 0.67 | -5 | . | 3.5 | 0.3 | -4 | -6 | -1.2 | i | CC1CCCC(NC(=O)CN2C(=O)NC(C)(c3ccccc3)C2=O)C1C (configuration not stated)
43 | 0.72 | 83* | . | 2.3 | -4.4 | . | . | . | . | O=[N+]([O-])/C=C/c1cn(Cc2ccccc2)c2ccccc12
44 | 0.74 | -3 | 99* | 0.8 | 0.8 | . | . | . | . | CCOC(=O)N1CCC(NC(=O)CSCc2nc(-c3cccc(OC)c3)oc2C)CC1
45 | 0.68 | -14 | 32 | -2.9 | -0.1 | -34 | -36 | 19 | i | O=C(CSCc1ccc(Cl)cc1)NCCSCc1ccco1
46 | . | . | . | -6.1 | . | -4 | -7 | 2.5 | i | CC(=O)c1ccc2ccccc2c1OC(=O)c1ccncc1
47 | . | 14 | 1 | 0.9 | . | 8 | 11 | -3.4 | i | Cc1nc2ccccc2c(=O)n1/N=C/c1ccc(C(C)C)cc1
48 | 0.73 | -10 | 99* | -0.7 | 3.0 | . | . | . | . | CC(C)(C)C(=O)N1CCc2cc(-c3csc(N)n3)ccc21
49 | 0.72 | -8 | -3 | 0.5 | -28 | . | . | . | . | C=C(C)COc1ccc2c(CC)cc(=O)oc2c1C
50 | 0.68 | 2 | 91* | -0.8 | 1.1 | -1 | 10 | 4.0 | i | CCOc1ccc(N2C(=O)CNC2=S)cc1

A portion of the library. The share of hits here may be higher or lower than overall.
